Bioassay records: PubChem BioAssay, several laboratories
Rce1 inh – yeast Ras-converting enzyme inhibition; Q03530; yeast membranes, quenched prenylated peptide cleavage fluorescence; calls only; 290,000 compounds, 0.27% hits; AID 2563;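 active means fall in fluorescence gain of 50% or more versus controls, with final raw signal at or below 3038400; inconclusive means same 50% fall but final raw signal above 3038400; inactive means fall in fluorescence gain under 50%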;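 further: plate controls were neutral control wells for no effect and wells lacking membranes for full effect; tested at 10 µM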
Target sequence (Q03530 whole entry, looked up): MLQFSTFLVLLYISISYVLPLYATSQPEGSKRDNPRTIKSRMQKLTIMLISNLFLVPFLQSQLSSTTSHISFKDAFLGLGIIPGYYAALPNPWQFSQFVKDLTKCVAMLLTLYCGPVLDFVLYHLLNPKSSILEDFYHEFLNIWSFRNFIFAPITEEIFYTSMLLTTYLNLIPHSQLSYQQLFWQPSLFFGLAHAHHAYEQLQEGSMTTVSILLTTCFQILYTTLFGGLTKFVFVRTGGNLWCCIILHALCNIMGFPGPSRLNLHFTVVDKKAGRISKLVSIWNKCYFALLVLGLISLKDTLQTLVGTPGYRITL
HIV Env fusion – HIV envelope-mediated fusion inhibition; HeLa-JRFL Env/CEM21 cell fusion, luciferase; inhibition, % at 12.3 µM; 360,000 compounds, 1.1% hits;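 active means mean replicate inhibition score of at least 50 and every replicate individually at or above 50; inconclusive means only one of the two criteria met; inactive means mean below 50 and not all replicates reaching 50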;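 further: 0% = plate neutral controls and 100% = maraviroc near 300 nM; one replicate is shown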
Yeast UUG start – alters start codon recognition fidelity in yeast; activity score, % at 18.7 µM; S. cerevisiae UUG-firefly luciferase reporter, luminescence/redox ratio; 350,000 compounds, 0.13% hits;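 active means replicate mean at a twofold rise or more, about +100% in these data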;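 further: firefly luciferase made from a UUG start codon reports start codon fidelity; reporter light over untreated wells divided by growth signal over untreated wells; some hits fall short of that in this replicate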
MT1-MMP act inh – MT1-MMP (human) activation inhibition; P50281; HT1080 RFP-PRO-GFP cells, GFP/RFP ratio fluorescence, overnight; percent of plate control window, DMSO zero; GFP/RFP ratio change, % at 20 µM; 360,000 compounds, 0.061% hits;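 active means GFP/RFP ratio change of at least 30% with cell ATP level not reduced by more than half and red fluorescence within 50% of control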; further: strong numbers were not always called active
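Assay system: HT1080 RFP-PRO-GFP cells | Dosing: 20 µM single dose, 1% DMSO | Incubation: Cells overnight before dosing, compound overnight, 37 °C, 5% CO2 | Evaluation: GFP/RFP fluorescence ratio | Control set: DMSO-only wells and HT1080 RFP-L50D-GFP cell wells as references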
CSC inhib – cancer stem cell inhibition; cancer stem cell-like cells viability, luminescence; inhibition, % at 7.5 µM; 300,000 compounds, 1.1% hits;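 active means mean at 75% or more and at least half the replicates too; inconclusive means mean and replicates disagree; tested in HMLE shEcad cells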;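 further: 0% = median of negative and 100% = median of positive control wells; the first replicate is given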
PABP FP inh – PABP-poly(A) binding inhibition | 290,000 compounds, 1% hits | AID 2014 | PABP-poly(A) RNA binding, fluorescence polarization | inhibition, % at 35 µM;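 active means 50% or more with normal probe brightness, or confirmed in later tests; inconclusive means above 50% with abnormal brightness, or retests that disagree; inactive means below 50% or failed in later tests; about a fifth of its hits are not listed in these tables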;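 further: calls also rest on retests at 20 µM and on dose response follow-up; controls were probe without protein and protein plus probe with vehicle; some compounds called inactive have numbers as strong as hits; many hits fall short of the cut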
Target sequence (P11940 whole entry, looked up): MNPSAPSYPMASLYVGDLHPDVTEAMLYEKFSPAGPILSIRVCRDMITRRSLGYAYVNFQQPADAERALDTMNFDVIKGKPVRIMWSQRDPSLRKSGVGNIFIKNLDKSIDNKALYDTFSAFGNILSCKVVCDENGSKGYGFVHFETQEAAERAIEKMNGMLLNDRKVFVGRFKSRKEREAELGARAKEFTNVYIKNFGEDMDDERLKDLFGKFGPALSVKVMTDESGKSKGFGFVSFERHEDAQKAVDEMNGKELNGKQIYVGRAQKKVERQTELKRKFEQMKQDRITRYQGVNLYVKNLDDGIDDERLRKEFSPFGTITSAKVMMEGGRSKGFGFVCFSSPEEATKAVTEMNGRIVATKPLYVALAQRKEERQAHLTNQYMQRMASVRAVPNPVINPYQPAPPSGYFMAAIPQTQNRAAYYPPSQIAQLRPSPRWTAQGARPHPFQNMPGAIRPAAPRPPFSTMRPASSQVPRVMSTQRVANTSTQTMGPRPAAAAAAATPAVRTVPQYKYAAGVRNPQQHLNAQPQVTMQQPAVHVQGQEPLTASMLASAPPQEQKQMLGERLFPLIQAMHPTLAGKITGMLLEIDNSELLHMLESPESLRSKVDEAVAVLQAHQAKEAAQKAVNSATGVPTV
eIF4H inh – inhibitors of RNA binding by human eIF4H; Q15056; eIF4H fluorescence polarization binding assay; inhibition, % at 35 µM; 290,000 compounds, 0.94% hits; AID 2012;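 active means 50% or more with normal probe brightness, or confirmed in later tests; inconclusive means above 50% with abnormal brightness, or retests that disagree; inactive means below 50% or failed in later tests; about a fifth of its hits are not listed in these tables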;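 further: calls also rest on retests at 20 µM and on dose response follow-up; 0% = protein and probe with vehicle and 100% = probe without protein; strong numbers were not always called active; many hits fall short of the cut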
MT1-MMP act inh RFP – further read-out of MT1-MMP act inh, marked with its call; RFP signal change, %; measured here: RFP expression control read;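 0 = vehicle wells; hits needed this value within 50% of zero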
* = called active by the depositor; i = inactive; ? = inconclusive; . = not tested or not shown.

SMILES | Rce1 inh | HIV Env fusion | Yeast UUG start | MT1-MMP act inh | MT1-MMP act inh RFP | CSC inhib | PABP FP inh | eIF4H inh
Oc1ccc(/C=N/Nc2ccc3ccccc3c2)c(O)c1 | i | -9 | -6 | 2 | 9 | 6 | -6 | 34
O=C(CN1CCCC1c1cccs1)N1CCN(S(=O)(=O)c2ccccc2)CC1 (stereo not drawn) | . | -13 | -13 | 1 | 3 | . | . | .
O=C(CNC(=O)c1cccnc1)N/N=C/c1cc(Br)c(O)c(Br)c1 | i | 9 | 7 | 1 | 2 | -6 | -3 | -1
CN(C)S(=O)(=O)c1cccc(-c2cn3cccnc3n2)c1 | i | -1 | . | 4 | 5 | -7 | 17 | 4
CC1=NN(C(=O)COc2ccccc2C)C(O)(c2ccc(Cl)cc2)C1 (stereo not drawn) | i | 0 | -7 | 1 | -3 | 11 | 12 | 0
CS(=O)(=O)N(CC(=O)N1CCc2ccccc2C1)c1ccc2c(c1)OCO2 | i | . | 7 | 2 | 3 | -8 | 17 | -7
CC(C)CCNS(=O)(=O)c1cc2c3c(c1)CCN3C(=O)CC2 | i | -13 | -1 | 1 | 0 | -13 | -2 | 4
CN(Cc1ccccc1)S(=O)(=O)c1ccc(Cl)c(C(=O)N2CCC(C(N)=O)CC2)c1 | . | 7 | 2 | -1 | 0 | -11 | . | .
CNc1nc(N)c([N+](=O)[O-])c(N2CCCCCC2)n1 | i | -27 | . | -3 | -2 | 8 | 2 | 0
CC(CC(=O)Nc1ccc(Br)cc1F)S(=O)(=O)c1ccc2c(c1)NC(=O)CO2 (stereo not drawn) | i | -13 | -4 | 1 | -4 | -2 | 9 | -4
Cc1cccc2c(C(=O)O)cc(-c3cccnc3)nc12 | i | -2 | -9 | 2 | 6 | -12 | 13 | 0
CCOC(=O)N1CCC(N2CCCC(C(=O)c3cccc(OC(C)C)c3)C2)CC1 (stereo not drawn) | i | 15 | -20 | 2 | 5 | 2 | 7 | 12
O=C1C2C(C(=O)N1c1ccc3c(c1)OCO3)C1C=CC2C12CC2 (stereo not drawn) | i | . | -11 | -2 | -1 | . | -5 | -6
O=C(O)Cn1c(=O)c2c3c(sc2n(Cc2ccc(F)cc2)c1=O)CCCC3 | i | 9 | 1 | -1 | 1 | 1 | -5 | -8
Cc1nc(SCC(=O)NC2CCCCC2C)nc(C)c1C (stereo not drawn) | . | . | 0 | -1 | 0 | -20 | . | .
CCNS(=O)(=O)c1ccc(CCC(=O)Nc2ccccc2)cc1 | i | 15 | . | 1 | -2 | -2 | -5 | -1
Cc1cc(C)n2nc(C(=O)N3CCCC(N4CCN(c5ccccc5C)CC4)C3)cc2n1 (stereo not drawn) | i | 8 | 2 | -1 | 0 | . | -8 | -2
COC(=O)c1cc(NC(=O)CN(c2cccc(OC)c2)S(=O)(=O)c2ccccc2)ccc1Cl | i | . | -2 | -3 | -17 | 2 | 9 | -2
O=C(N/N=C/c1ccc([N+](=O)[O-])cc1)c1c[nH]c2ccccc12 | i | -39 | . | 1 | 1 | 21 | -10 | -8
COc1ccc(N=Cc2c(O)n(-c3ccc(OC)cc3)c(=O)c3ccccc23)cc1 | i | -8 | . | -5 | -8 | 5 | -2 | -6
Cc1cc(C)nc(N/N=C/c2ccccc2OCC(=O)O)n1 | i | -5 | -23 | 2 | 3 | -1 | 15 | 7
Cc1cccc(-n2c(N)cc(=O)nc2SCC(=O)Nc2nnc(CC(C)C)s2)c1 | i | . | . | . | . | . | 7 | -8
CC(CNC(=O)c1cccs1)c1ccc([N+](=O)[O-])cc1 (stereo not drawn) | i | -18 | . | 5 | 0 | -2 | -2 | -7
CCOc1cc(C(=O)Oc2cc(C)[nH]c(=O)c2[N+](=O)[O-])cc(OCC)c1OCC | i | -17 | -9 | -2 | 3 | -8 | -5 | 7
COCCNC(=O)c1cc2c(s1)-c1ccc(Cl)cc1SC2 | i | -80 | 1 | -1 | -5 | 8 | -6 | -1

Part of the list above in order of formula weight, largest number first:
SMILES | Rce1 inh | HIV Env fusion | Yeast UUG start | MT1-MMP act inh | MT1-MMP act inh RFP | CSC inhib | PABP FP inh | eIF4H inh
O=C(CNC(=O)c1cccnc1)N/N=C/c1cc(Br)c(O)c(Br)c1 | i | 9 | 7 | 1 | 2 | -6 | -3 | -1
O=C(CN1CCCC1c1cccs1)N1CCN(S(=O)(=O)c2ccccc2)CC1 (stereo not drawn) | . | -13 | -13 | 1 | 3 | . | . | .
CCNS(=O)(=O)c1ccc(CCC(=O)Nc2ccccc2)cc1 | i | 15 | . | 1 | -2 | -2 | -5 | -1
O=C(N/N=C/c1ccc([N+](=O)[O-])cc1)c1c[nH]c2ccccc12 | i | -39 | . | 1 | 1 | 21 | -10 | -8
Oc1ccc(/C=N/Nc2ccc3ccccc3c2)c(O)c1 | i | -9 | -6 | 2 | 9 | 6 | -6 | 34

A second format for some results above:
Below each SMILES – Rce1 inh | HIV Env fusion | Yeast UUG start | MT1-MMP act inh | MT1-MMP act inh RFP | CSC inhib | PABP FP inh | eIF4H inh
COc1ccc(N=Cc2c(O)n(-c3ccc(OC)cc3)c(=O)c3ccccc23)cc1
  i | -8 | . | -5 | -8 | 5 | -2 | -6
O=C1C2C(C(=O)N1c1ccc3c(c1)OCO3)C1C=CC2C12CC2 (stereo not drawn)
  i | . | -11 | -2 | -1 | . | -5 | -6
CN(Cc1ccccc1)S(=O)(=O)c1ccc(Cl)c(C(=O)N2CCC(C(N)=O)CC2)c1
  . | 7 | 2 | -1 | 0 | -11 | . | .

Going on with the list:
SMILES | Rce1 inh | HIV Env fusion | Yeast UUG start | MT1-MMP act inh | MT1-MMP act inh RFP | CSC inhib | PABP FP inh | eIF4H inh
N/C(=N\OC(=O)Oc1ccccc1)c1ccc(Br)cc1 | i | 2 | -14 | 2 | 2 | 25 | 8 | 24
O=C1CC2(CCOCC2)Oc2ccc3ccccc3c21 | i | -15 | -13 | 5 | 1 | -18 | . | .
CCOC(=O)n1c(=O)oc2cc(S(=O)(=O)N3CCOCC3)ccc21 | i | -10 | -31 | 3 | 5 | -18 | 7 | -8
CCn1c(CNC(=O)C2CCCCC2)cc2ccccc21 | i | 20 | -15 | 0 | -2 | -7 | 7 | -2
Cn1c(CCNC(=O)c2cccs2)n[nH]c1=S | i | -29 | . | 5 | 5 | -1 | 9 | -3
COC(=O)c1ccsc1NC(=O)c1ccc2c(c1)OCCO2 | i | 1 | -38 | -5 | -21 | 2 | 1 | -2
COC(=O)c1[nH]c2ccc(C)cc2c1NS(=O)(=O)c1ccc(F)c(C)c1 | i | -52 | 3 | -4 | -5 | 20 | -1 | -2
CCC(C)N(C(=O)CSc1nnc(C)n1C)C1CCS(=O)(=O)C1 (stereo not drawn) | i | 9 | . | 9 | 4 | -18 | . | .
COc1ccc(OCc2nnc(SCC(=O)N3CCCCC3)o2)cc1 | i | -25 | -6 | -1 | 1 | -9 | -3 | -4
CCC(C)[C@H](NC(=O)C1CC(=O)N(c2ccc3c(c2)OCCO3)C1)C(=O)NC1CCCC1 (stereo partly drawn) | i | -4 | 4 | -1 | 4 | -3 | 5 | 12
O=C(Cc1ccc(Cl)cc1)NC1CCS(=O)(=O)C1 (stereo not drawn) | i | -10 | -7 | -2 | 2 | 1 | 3 | -10
COc1ccc(CNC(=O)c2cccc3c2C(=O)N(CC2CCCO2)C3)cc1 (stereo not drawn) | i | -23 | 1 | -4 | -4 | 6 | -7 | 0
CCOC(=O)/C(C#N)=C/c1cn(CCOc2ccc(OC)cc2)c2ccccc12 | i | 1 | . | -2 | -4 | 12 | 2 | 1
Cc1cc(C)cc(-n2ncc3c2CCCC3NC(=O)CCCn2cncn2)c1 (stereo not drawn) | i | 6 | -11 | 3 | 2 | -3 | -1 | 2
O=C(CCl)NC1(C(F)(F)F)C(=O)Nc2c1c(=O)[nH]c(=O)n2-c1ccccc1 (stereo not drawn) | i | -2 | -15 | 1 | 4 | -10 | 7 | 12
CC1CCCCC1NC(=O)CN1C(=O)NC(C)(c2cccc(Br)c2)C1=O (stereo not drawn) | . | 3 | -8 | 3 | 1 | . | . | .
Cn1nnc2c(sc3nc(N4CCOCC4)c4c(c32)CCCC4)c1=O | i | . | 5 | -5 | -17 | . | 6 | 2
COc1ccc(NS(=O)(=O)c2cccc(NC(=O)CNC(C)=O)c2)cc1 | i | 0 | -24 | 0 | -1 | -2 | -5 | 5
CS(=O)(=O)N(CC(=O)Nc1ccc(Cl)c(Cl)c1)C1CCCCC1 | i | -7 | -9 | -3 | -8 | 7 | -1 | -7
CCC(NS(=O)(=O)c1c(C)[nH]c(=O)[nH]c1=O)C12CC3CC(CC(C3)C1)C2 (stereo not drawn) | i | 80* | 5 | -1 | 1 | 7 | -6 | -7
O=C(NCc1ccc2c(c1)OCO2)c1nc(S(=O)(=O)Cc2ccccc2F)ncc1Cl | i | 21 | -2 | 3 | 6 | ? | 0 | -6
CCN(C[C@H]1N[C@@](C)(C(=O)OC)[C@H]2C(=O)N(C)C(=O)[C@@H]12)C(=O)Nc1ccccc1 | . | -65 | -16 | 2 | 6 | . | . | .
Cc1cc(NC(=O)CSc2nnnn2C2CCCC2)no1 | i | . | -10 | 1 | 0 | -2 | 10 | 6
CSc1ccccc1NC(=O)CN(C)C(=O)CNc1ccc(C(F)(F)F)cc1[N+](=O)[O-] | . | . | -4 | 1 | 6 | -13 | . | .
CCOC(=O)N1CCC(NC(=O)C2CCCN(C(=O)N3CCOc4ccccc43)C2)CC1 (stereo not drawn) | i | . | -6 | -1 | -4 | -5 | 1 | -5

Going on with the list:
SMILES | Rce1 inh | HIV Env fusion | Yeast UUG start | MT1-MMP act inh | MT1-MMP act inh RFP | CSC inhib | PABP FP inh | eIF4H inh
CC(C)Oc1ccc(CN2CCC2(C)C(=O)Nc2cccc3cccnc23)cc1 (stereo not drawn) | . | 17 | 22 | 4 | 0 | . | . | .
CCCS(=O)(=O)N1CCC(C(=O)NCCN(C)Cc2ccccc2)CC1 | i | . | -13 | 2 | 4 | . | -3 | -9
CCOc1ccc2c(c1)sc(=NC(=O)C1CC1)n2C | i | . | -32 | 11 | -2 | 8 | -12 | -3
COc1ccc(OC)c(/C=C2\SC(=S)N(NS(=O)(=O)c3ccc(C)cc3)C2=O)c1 | i | -7 | . | 1 | 3 | 10 | -4 | -4
CC(=O)Nc1nc(-c2ccc(Br)s2)cs1 | i | . | -13 | -3 | -2 | 11 | -16 | -5
O=C(NC1CCCN(CCc2ccccc2)C1)C1CCCC1 (stereo not drawn) | i | -10 | -18 | 6 | 4 | -1 | 11 | -8
Cc1oc(-c2ccc(-c3ccccc3)cc2)nc1CN(CCO)C(C)C | i | -253 | -12 | 2 | -4 | 73 | 1 | 10
CCc1ccc(CN(C)C(=O)c2cc(COc3cccc4cnccc34)on2)cc1 | i | 8 | -19 | 4 | -27 | 0 | -16 | -3
O=C(Nc1ccc(NC(=O)c2ccccc2Br)cc1)c1ccccc1 | i | 7 | -15 | 2 | -2 | -8 | 3 | -1
CCOc1ccc(-n2nnnc2SCC(=O)c2ccccc2)cc1 | i | . | -15 | -1 | -1 | 21 | 8 | 0
CN1CCC(N(C)C(=O)c2cccc(S(=O)(=O)N3CCc4ccccc43)c2)CC1 | . | -5 | . | 0 | 1 | 3 | . | .

A portion of the library; the hit share may differ from the screen's.
